Screening results: PubChem BioAssay, National Center for Advancing Translational Sciences (NCATS)
D2 ag – Beta-Arrestin HTS for Positive Allosteric Modulators of the Human D2 Dopamine Receptor: Agonists | activation, % (no concentration beside the values) | hit rate 0.084% among 360,000 | DiscoveRx PathHunter D2 beta-arrestin, luminescence, 90 min; 100% = 57 uM dopamine signal | D(2) dopamine receptor (Homo sapiens), P14416; in the data active = activation above about 40%; inconclusive = about 15% to 40%; inactive = below about 15%; also: compound concentration not given in the record; the text of the record calls up to 30% inactive
Target sequence (P14416 whole entry, looked up): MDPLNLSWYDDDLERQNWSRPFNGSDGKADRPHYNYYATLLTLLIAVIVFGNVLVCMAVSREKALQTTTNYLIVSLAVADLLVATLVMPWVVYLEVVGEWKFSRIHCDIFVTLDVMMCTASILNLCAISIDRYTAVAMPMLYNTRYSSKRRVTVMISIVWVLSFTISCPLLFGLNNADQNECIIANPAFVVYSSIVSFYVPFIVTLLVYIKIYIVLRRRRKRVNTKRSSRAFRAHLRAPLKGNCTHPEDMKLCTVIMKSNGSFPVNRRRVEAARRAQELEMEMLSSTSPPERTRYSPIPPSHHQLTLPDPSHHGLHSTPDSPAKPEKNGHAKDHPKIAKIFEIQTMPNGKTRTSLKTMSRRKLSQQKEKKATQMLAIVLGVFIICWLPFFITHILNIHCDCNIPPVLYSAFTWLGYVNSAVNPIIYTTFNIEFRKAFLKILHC
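Agonist mode: compounds alone added to overnight-plated D2 PathHunter cells for 90 min at 37 C, with 57 uM final dopamine (EC100) defining full response. Beta-arrestin recruitment detected by chemiluminescent reagent, read after 1 h at ambient temperature.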
Sfp inh – qHTS Assay for Inhibitors of Bacillus subtilis Sfp phosphopantetheinyl transferase (PPTase) | 4'-phosphopantetheinyl transferase ffp (Bacillus subtilis), Q9F4F7 | Biochemical Sfp PPTase activity, qHTS | Potency, µM, for inactives: max response, negative = inhibition, actives largely listed as inhibitors | hit rate 3.5% among 310,000 | AID 1490, 2009; active = well fitted inhibition curve with a large enough effect; inconclusive = small, poorly fitted or top-dose-only effect, or another doubt; inactive = no such curve, though single readings can be large or run the other way;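 also: the enzyme is Sfp with the accession as filed and its product quenches rhodamine fluorescence; potency is read from the fitted curve at half-maximal effect; 0% = enzyme reaction without inhibitor and -100% = no enzyme wells; top concentration of the series not given in the record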
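Fluorescence-quenching assay: 15 nM Sfp-PPTase preincubated 15 min at room temperature with compound, then 5 uM rhodamine-CoA and 12.5 uM BHQ-2-labelled YbbR peptide added. Fluorescence (ex 525/em 598 nm) read at start and after 30 min; difference gives rate.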
gsp agonist – qHTS for Agonist of gsp, the Etiologic Mutation Responsible for Fibrous Dysplasia/McCune-Albright Syndrome: qHTS; AID 624287, 2012; Potency, µM (doses to about 76.9 µM), without a hit: at the top dose activation (cAMP increase), actives largely listed as activators; gsp mutant cells, cAMP HTRF, 30 min; control for the full effect not named in the record; hit rate 0.13% among 340,000; active = well fitted activation curve with a large enough effect; inconclusive = small, poorly fitted or top-dose-only effect, or another doubt; inactive = no such curve, though single readings can be large or run the other way; cell line not stated here;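 also: phosphodiesterase inhibitor Ro 20-1724 added with compounds to block cAMP breakdown; potency is read from the fitted curve at half-maximal effect; nearly all actives have a fitted effect of over 60% in size; about a fifth of the inactives were tested at one dose only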
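Cells stably selected in G418 were plated at 2000/well, grown 16-24 hr, then given compounds in DMSO with the PDE inhibitor […] (300 uM solution added) for 30 min at 37C; cAMP was read by HTRF.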
PINK1 expr mod – A Quantitative High throughput Screen to Identify Chemical Modulators of PINK1 Expression; AID 624263, 2012; hit rate 0.2% among 410,000; Potency, µM (top dose mostly 76.6 µM), without a hit: at the top dose activation (PINK1 increase), actives largely listed as activators; PINK1 immunofluorescence, high-content cytometry, 24 h; active = well fitted activation curve with a large enough effect; inconclusive = small, poorly fitted or top-dose-only effect; inactive = flat fitted curve, though single readings scatter; cell line not stated here;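 also: potency is read from the fitted curve at half-maximal effect; % of control where 0% means no effect; nearly all actives have a fitted effect of over 65% in size; a mitochondrial uncoupler was the plate control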
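Stable cell line, 250 cells/well, 12 h attachment; compounds pinned at 5 concentrations, 24 h; CCCP control. Fixed with nuclear dye, primary antibodies 12 h at 10 degrees C, secondary plus cell stain; laser-scanning cytometer read.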
gsp antagonist – qHTS for Antagonists of gsp, the Etiologic Mutation Responsible for Fibrous Dysplasia/McCune-Albright Syndrome: qHTS. gsp-mutant cells, cAMP HTRF, 30 min; control for the full effect not named in the record. Potency, µM (titrated, usually from 76.9 µM), for inactives: at the top dose activity change, negative = inhibition, hits mostly inhibitors. hit rate 0.4% among 340,000; active = falling curve of any shape with a large fitted effect; inconclusive = falling curve, mostly with a smaller effect; inactive = flat or rising curve; cell line not stated here;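 also: intracellular cAMP measured with PDE inhibitor Ro 20-1724 present during compound exposure; potency is read from the fitted curve at half-maximal effect; % is scaled to controls: 0 for no effect and ±100 for the full control effect; nearly all actives have a fitted effect of over 65% in size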
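Measurement of cellular cAMP by homogeneous time-resolved fluorescence following a 30 min compound exposure at 37C. The PDE inhibitor […] was present throughout; the assay buffer was DPBS with 0.05% BSA and 0.005% Tween 20.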
ClpP mod – qHTS Assay for Activators of ClpP; purified B. subtilis ClpP, FRET peptide cleavage, 20 min; Potency, µM (top dose mostly 57.5 µM), without a hit: at the highest dose activity change, negative = active; hit rate 1.9% among 340,000; active = well fitted falling curve with a large enough effect; inconclusive = small, poorly fitted or top-dose-only effect; inactive = no such curve, though single readings can be large or run the other way; also: potency is read from the fitted curve at half-maximal effect; the source files actives as falling curves though it sought activators and does not explain the sign; nearly all actives have a fitted effect of over 65% in size; many hits overshoot -100%
Target sequence (P80244 whole entry, looked up): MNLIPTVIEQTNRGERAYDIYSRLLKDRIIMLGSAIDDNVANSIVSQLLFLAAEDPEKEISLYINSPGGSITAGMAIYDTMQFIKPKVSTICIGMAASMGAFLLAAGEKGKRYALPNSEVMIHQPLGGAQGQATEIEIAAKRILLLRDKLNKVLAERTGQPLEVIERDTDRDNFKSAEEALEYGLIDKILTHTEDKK
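FRET quenching reversal measured ClpP activation: 10 microg/mL B. subtilis ClpP at pH 8 with the FRET-FV decapeptide, read at 430 nm after 320 nm excitation. The 20-min minus 0-min signal was scaled between DMSO/no-enzyme wells and ADEP (5.8 microM final).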
Menin-MLL FL inh – qHTS Assay for Inhibitors Targeting the Menin-MLL Interaction in MLL Related Leukemias: Competition With Fluorescein Labeled MLL-derived Peptide. Fluorescence polarization, fluorescein-MLL peptide displacement from menin. FP activity change, % at 61.4 µM. 290,000 tested, under 10 active. AID 1766, 2009; inconclusive = falling polarisation curve, or a change in total fluorescence; inactive = total fluorescence flat and polarisation flat or rising; no compound was filed as active; the % refers to the polarisation; negative = inhibition;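 also: % of control where 0% means no effect; inhibitors lower the polarisation; unlabelled MLL peptide was the positive control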
The depositor's hits bear a star; ? = inconclusive; . = no result given; [ ] = remark or other dose.

SMILES | D2 ag | Sfp inh | gsp agonist | PINK1 expr mod | gsp antagonist | ClpP mod | Menin-MLL FL inh
Cc1ccccc1NC(=O)NNC(=O)c1ccc2ccccc2c1 | 0.8 | 24% | 13% | 2.8% | -9% | -6.1% | -4.4
CC(=O)C(C(C)=O)c1c(Cl)c(O)c(O)c2c(C(=O)c3ccccc3)coc12 | ? | 6.3µM* | ? | 16µM* | -3% | -1.6% | 3.8
O=C(O)c1ccccc1NC(=O)C(Cc1ccccc1)N1C(=O)c2ccccc2C1=O (centres undefined) | -0.4 | 2% | -14% | 0.4% | -20% | 0.1% | 0.1
COc1ccccc1C(C)NC(=O)c1ccc(S(=O)(=O)NCc2ccco2)cc1 (centres undefined) | -1.7 | . | -6%[15.4 µM] | 1.4% | -7% | -12% | .
COc1ccc(N(C)S(=O)(=O)c2cccc(C(=O)N3CCN(Cc4ccc5c(c4)OCO5)CC3)c2)cc1 | 6.4 | . | 6% | 0.9% | ? | 0.6% | .
CC1CC(C)(C)CC2(C1)NC(=O)N(CC(=O)Nc1ccc3c(c1)OCO3)C2=O (centres undefined) | -3.3 | . | ? | 1.6% | . | -2.5% | .
CN1CCN(C(=O)C2=C[C@@H](c3ccc4c(c3)OCO4)C[C@@H](OCc3ccc(CO)cc3)O2)CC1 | -0.2 | 11% | . | 0.9% | 6% | 0.5% | -6.4
O=[N+]([O-])c1ccc(CN2CCOCCOCCOCC2)cc1 | -0.2 | -13% | -1%[15.4 µM] | -0.8% | -3% | 1.4% | 8.4
COc1ccc(COCC(O)CN2CCC(C(N)=O)CC2)cc1 (centres undefined) | -5.3 | 14% | ? | 0.0% | 7% | 0.3% | 5.6
Cn1c(CSCc2ccc(F)cc2)nnc1SCC(=O)Nc1cccc(C(=O)O)c1 | -2.7 | -5% | 9% | 0.1% | 11% | -1.0% | 0.7
O=c1[nH]c(NCCO)nnc1Cc1ccc(Cl)cc1 | -1.4 | 11% | 2%[15.4 µM] | 0.8% | 3% | -4.3% | 5.7
Cc1ccccc1NC(=O)CN1C(=O)c2cccnc2Oc2ccc(Cl)cc21 | 7.8 | 0% | ? | -0.3% | -20% | -0.7% | .
CCc1nc2c(OCc3ccc(C(F)(F)F)cc3)cccn2c1N(C)C(=O)C(C)C | -4.7 | . | . | 1.1% | . | 3.3% | .
CCN1CCN(Cc2ccc(NC(=O)c3ccc(C)c(NC(=O)c4ccnnc4)c3)cc2C(F)(F)F)CC1 | -8.6 | -1% | 16% | 0.3% | 0% | -2.7% | -2.2
CC12C(=O)N(Cc3ccco3)C(=O)C1C1c3ccccc3C2c2ccccc21 (centres undefined) | 1.1 | -21% | -12% | 3.3% | -25% | -4.1% | 0.5
Cc1ccc2nc(NC(=O)CSCc3ccccc3)sc2c1 | -1.9 | 1% | 8% | 2.3% | 2% | 1.8% | -0.7
CC1CCCN(C(=O)COc2ccc(Nc3ccccc3)cc2)C1 (centres undefined) | -1.5 | -3% | 17%[15.4 µM] | 0.3% | . | . | 0.2
COc1cccc(/C(O)=C2/C(=O)C(=O)N(CCN(C)C)C2c2ccccn2)c1 (centres undefined) | -8.1 | ? | -12% | 1.2% | 7% | 0.0% | 1.7
COc1cc(OC)cc(C(=O)NNC(=O)Cc2cccs2)c1 | -3.2 | . | -12% | 0.1% | -1% | -10% | .
COC(=O)[C@H](Cc1ccc(O)cc1)NC(=O)Cn1ccc(NC(=O)OCc2ccccc2)nc1=O | -2.3 | . | . | -0.6% | 4% | -2.1% | .
CC(=O)c1ccc(Sc2ccccc2N)c([N+](=O)[O-])c1 | -5.6 | 2% | -21% | 1.2% | -1% | 5.7% | 16
OC(CN1CCc2ccccc2C1)c1ccccc1 (centres undefined) | -5.8 | -10% | 1% | 3.4% | 9% | 0.3% | -2.6
CSC[C@H]1CN(c2ccccc2)C(=O)[C@@H]1CC(=O)Nc1ccc(Br)cc1 | 1.5 | . | 1% | 2.9% | . | 1.4% | .
Cc1cccc(NC(=O)c2cccc(N3C(=O)CCC3=O)c2)c1 | -1.0 | 12% | -2% | 2.1% | 9% | 0.2% | -0.2
O=C1C2CCCCN2C(=O)N1CCCCN1CCN(c2ccccc2Oc2ccccc2)CC1 (centres undefined) | -6.8 | 16% | -35% | 0.8% | 11% | -0.5% | -0.6
Other entries:
SMILES | D2 ag | Sfp inh | gsp agonist | PINK1 expr mod | gsp antagonist | ClpP mod | Menin-MLL FL inh
COc1cc(/C=C2\SC(=Nc3cccnc3)NC2=O)cc(OC)c1OC | 1.8 | -12% | -6%[15.4 µM] | 8.2% | 12% | -0.1% | ?
Cn1cc(CN2CCC(n3nccc3NC(=O)Cc3ccccc3)CC2)cn1 | -6.7 | 15% | 1% | -3.1% | 16% | -1.3% | .
c1cncc(-c2nn[nH]n2)c1 | -0.1 | -6% | -19% | -1.0% | 10% | -1.5% | 5.6
COc1cccc(Nc2ncc3nc(C)c(=O)n(CCC#N)c3n2)c1 | . | 21% | . | 0.0% | . | . | 13
CCCCCNC(=O)c1ccc2c(=O)n(CCCOCC)c(=S)[nH]c2c1 | -0.5 | 14% | ? | 1.5% | 8% | . | 1.1
COc1ccccc1-c1sc2ccccc2c1-c1ccc(C(C)=O)cc1 | -0.3 | -5% | . | 6.0% | -14% | 28µM* | -1.4
COc1cc(C2/C(=C(\O)c3ccc4c(c3)CC(C)O4)C(=O)C(=O)N2c2nnc(C)s2)cc(OC)c1OC (centres undefined) | 2.1 | -20% | ? | -0.2% | 8% | 1.0% | -1.2
CC(=O)c1cccc(CN2CCC(n3nccc3NC(=O)CCOc3ccccc3)CC2)c1 | -0.6 | 4% | -1% | -1.1% | 2% | 1.1% | .
CN1CCN(S(=O)(=O)c2cccc(S(=O)(=O)c3ccc(Cl)cc3)c2)CC1 | -0.5 | -7% | -8% | 19%[38.3 µM] | -5% | -1.5% | -0.9
O=S(=O)(NC1CCCCC1)c1ccc(N2CCOCC2)nc1 | 4.3 | 1% | -2% | -0.5% | 21% | -15% | -2.2
CCCCCc1ccc(S(=O)(=O)Nc2cc(C)ccn2)cc1 | 0.5 | 24% | 13%[15.4 µM] | 0.9% | 11% | 0.1% | 2.6
O=C(Cn1c(COc2ccccc2)nc2ccccc21)Nc1cccc(Cl)c1 | -0.1 | 24% | -19% | 6.3% | 15% | 2.0% | 4.9
Cc1ccccc1Nc1nc(N)nc(COC(=O)/C=C/c2ccco2)n1 | -2.8 | -29% | 23% | -0.7% | -5% | 1.1% | 7.2
CCCCn1c(N)c(N(CCOC)C(=O)COC(=O)CCOc2ccccc2)c(=O)[nH]c1=O | -0.9 | . | ? | -4.4% | 1% | -2.1% | .
CC(C)Cc1nc(N2CCN(C(=O)c3ccco3)CC2)c(C#N)c2c1CCC2 | -2.9 | 45µM* | -17% | 0.4% | 1% | ? | ?
O=C(c1cn(-c2ccccc2)nc1-c1cccnc1)N1CCCC(C(F)(F)F)C1 (centres undefined) | -2.7 | . | ? | -0.4% | 2% | -2.4% | .
CCOC(=O)Cc1csc(NC(=O)CCCCCN2C(=O)c3ccccc3C2=O)n1 | -0.2 | 3% | 16% | -0.5%[38.3 µM] | ? | -1.9% | 3.5
O=C(O)COCC(=O)N1CCCN(c2ccc(C(F)(F)F)cn2)CC1 | 2.3 | 14% | 2%[15.4 µM] | -0.8% | 8% | . | 3.7
COCCn1c(=O)[nH]c2cc(C(=O)NC(C)C)ccc2c1=O | -4.4 | -1% | 14% | -3.7% | 16% | ? | -2.3
COc1ccccc1C1CCN(Cc2ccc3ccccc3c2)CC1 | -1.7 | -6% | -1%[15.4 µM] | ? | 9% | -16% | 9.2
COC(=O)c1cc([N+](=O)[O-])c(-n2ccnc2)c([N+](=O)[O-])c1 | -2.6 | -24% | -36%[inhibitor] | -1.8% | 5% | 1.4% | -2.2
CCN1C(=O)[C@H]2[C@@H](c3ccc(-c4ccc(OC)cc4)c(OC)c3)N[C@@](C)(C(=O)OC)[C@H]2C1=O | -3.2 | . | 2% | -0.2% | -22% | 3.8% | .
O=C(Nc1ccc(Cl)cc1Cl)c1ccc2ncsc2c1 | -2.5 | 6% | 28% | 4.9% | 11% | 3.9% | -3.1
COc1ccncc1-c1csc(C(O)c2ccccc2)n1 (centres undefined) | -3.4 | . | . | -0.7% | . | 0.0% | .
CCOc1ccc(CNCc2ccccc2Cl)cc1 | 5.3 | 20% | -5% | 3.1% | -20% | 0.1% | 2.1
C[C@H](NC(=O)Cc1cccc2ccccc12)C(=O)N1CCOCC1 | 1.0 | . | 6% | -1.1% | 18% | . | .
COCCN1CCCC(CNCc2cn(C)nc2-c2ccc(Oc3ccccc3)cc2)C1 (centres undefined) | 0.8 | 4% | ? | -0.4% | -13% | -0.3% | 1.3
COc1ccc(NC(=O)c2ccccc2N(Cc2ccccc2)S(C)(=O)=O)cc1 | -3.7 | 13% | 10% | 0.3% | -16% | 1.6% | 1.9
CCCCn1c(N)c(N(CCOC)C(=O)CCC2CCCCC2)c(=O)[nH]c1=O | -4.7 | . | 20% | -0.8% | 9% | -2.2% | .
CN(C(=O)C(C)(C)C)[C@H]1C[C@H]2c3[nH]c4ccccc4c3CCN2C(=O)[C@H]1CO | -2.5 | . | -75%[inhibitor] | 1.1% | . | 4.6% | .

Rows were taken by chance; overall some 5.1% were active at least once.
